OX1R antagonist = human HCRTR1 antagonism; CHO/OX1R cells, Fluo-8 calcium fluorescence, orexin A; inhibition, % at 5 µM; actives 0.43% (n = 330,000);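 active = inhibition above its plate's threshold, mean inhibition of all tested compounds on the plate plus 3 SD, cut at about 37% in these data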;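 note: 0% = orexin A challenge wells and 100% = SB-334867-A antagonist wells; not every result past the cut was called active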
Target sequence (O43613 whole entry, looked up): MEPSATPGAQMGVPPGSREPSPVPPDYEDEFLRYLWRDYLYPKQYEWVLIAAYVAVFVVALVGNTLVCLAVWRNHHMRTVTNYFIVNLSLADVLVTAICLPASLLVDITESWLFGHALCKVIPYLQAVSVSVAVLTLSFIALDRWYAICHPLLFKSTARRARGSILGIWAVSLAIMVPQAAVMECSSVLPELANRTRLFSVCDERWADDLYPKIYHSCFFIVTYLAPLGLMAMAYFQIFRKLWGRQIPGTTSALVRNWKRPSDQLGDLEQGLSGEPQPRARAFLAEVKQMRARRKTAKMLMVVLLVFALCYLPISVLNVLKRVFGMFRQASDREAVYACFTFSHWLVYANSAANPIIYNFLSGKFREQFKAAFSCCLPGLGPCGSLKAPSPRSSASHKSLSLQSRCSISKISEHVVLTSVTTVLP
The depositor's hits bear a star.

Sample of the layout:
COc1ccc(NC(=O)CN(C)C(C)C(=O)N2CCCCC2)cc1 (configuration not stated) was read as OX1R antagonist -8.
Screening Cn1nc(C(=O)OCc2ccc(Br)cc2F)c2ccccc2c1=O returned OX1R antagonist -7.
For CC1CCN(C(=O)c2ccc3c(=O)n4c(nc3c2)CCCCC4)CC1 the results were OX1R antagonist -72.
For Cc1nc(SCC(=O)Nc2c(C)n(C)n(-c3ccccc3)c2=O)[nH]c(=O)c1Cc1ccccc1 the results were OX1R antagonist -24.
For CCc1cc(C(=O)c2ccccc2)c(N)s1 the results were OX1R antagonist -16.
For Cc1ccc(N2C(=O)c3ccccc3C2=O)cc1 the results were OX1R antagonist 2.
For CCC(=O)N1CCc2cc(S(=O)(=O)NCCC(=O)NC3CCCc4ccccc43)ccc21 (configuration not stated) the results were OX1R antagonist -42.
For Cc1cccc2c1-c1sc(C(=O)N3CCCCC3)cc1CO2 the results were OX1R antagonist -22.
Screening CC1(C)CC(=O)C2=C(C1)c1c(ccc3ccccc13)NC2c1ccc(OCC(=O)O)cc1 (configuration not stated) returned OX1R antagonist -1.
`CCCCOc1ccc(C2=NNC(=O)CC2)cc1` gave OX1R antagonist -20.
Screening CCCC1CC(c2csc(N)n2)CCO1 (configuration not stated) returned OX1R antagonist -28.
For O=C(CCC(=O)c1cccs1)NNC(=O)c1cccc(Cl)c1 the results were OX1R antagonist -11.
`COc1ccc(NC(=O)CSc2nnnn2-c2ccccc2OC)c(OC)c1` gave OX1R antagonist -15.
For Cc1ccc(NC(=O)NC(=O)N(C2CCCCC2)S(=O)(=O)c2ccccc2)cc1 the results were OX1R antagonist -15.
`Cn1c(SCC(=O)NCc2ccco2)nnc1C1CCCC1` gave OX1R antagonist -4.
CC(C)(C)C1(O)CC(C(F)(F)F)=NN1C(=O)CCCc1ccccc1 (configuration not stated) was read as OX1R antagonist -38.
For CCCOc1cc(C)c(S(=O)(=O)NCCOC)cc1C the results were OX1R antagonist -14.
For CCS(=O)(=O)N1CCCC(C(=O)c2ccc(OC)cc2C)C1 (configuration not stated) the results were OX1R antagonist -10.

The whole of this part, from the first entry:
COc1ccc(NC(=O)CN(C)C(C)C(=O)N2CCCCC2)cc1 (configuration not stated) was read as OX1R antagonist -8.
Screening Cn1nc(C(=O)OCc2ccc(Br)cc2F)c2ccccc2c1=O returned OX1R antagonist -7.
For CC1CCN(C(=O)c2ccc3c(=O)n4c(nc3c2)CCCCC4)CC1 the results were OX1R antagonist -72.
For Cc1nc(SCC(=O)Nc2c(C)n(C)n(-c3ccccc3)c2=O)[nH]c(=O)c1Cc1ccccc1 the results were OX1R antagonist -24.
For CCc1cc(C(=O)c2ccccc2)c(N)s1 the results were OX1R antagonist -16.
For Cc1ccc(N2C(=O)c3ccccc3C2=O)cc1 the results were OX1R antagonist 2.
For CCC(=O)N1CCc2cc(S(=O)(=O)NCCC(=O)NC3CCCc4ccccc43)ccc21 (configuration not stated) the results were OX1R antagonist -42.
For Cc1cccc2c1-c1sc(C(=O)N3CCCCC3)cc1CO2 the results were OX1R antagonist -22.
Screening CC1(C)CC(=O)C2=C(C1)c1c(ccc3ccccc13)NC2c1ccc(OCC(=O)O)cc1 (configuration not stated) returned OX1R antagonist -1.
`CCCCOc1ccc(C2=NNC(=O)CC2)cc1` gave OX1R antagonist -20.
Screening CCCC1CC(c2csc(N)n2)CCO1 (configuration not stated) returned OX1R antagonist -28.
For O=C(CCC(=O)c1cccs1)NNC(=O)c1cccc(Cl)c1 the results were OX1R antagonist -11.
`COc1ccc(NC(=O)CSc2nnnn2-c2ccccc2OC)c(OC)c1` gave OX1R antagonist -15.
For Cc1ccc(NC(=O)NC(=O)N(C2CCCCC2)S(=O)(=O)c2ccccc2)cc1 the results were OX1R antagonist -15.
`Cn1c(SCC(=O)NCc2ccco2)nnc1C1CCCC1` gave OX1R antagonist -4.
CC(C)(C)C1(O)CC(C(F)(F)F)=NN1C(=O)CCCc1ccccc1 (configuration not stated) was read as OX1R antagonist -38.
For CCCOc1cc(C)c(S(=O)(=O)NCCOC)cc1C the results were OX1R antagonist -14.
For CCS(=O)(=O)N1CCCC(C(=O)c2ccc(OC)cc2C)C1 (configuration not stated) the results were OX1R antagonist -10.
COc1ccc(OC)c(-c2cc(C(=O)Nc3c(C)n(C)n(-c4ccccc4)c3=O)no2)c1 was read as OX1R antagonist -17.
Screening O=C(NCc1cccnc1)c1ccc(N2CCOCC2)c([N+](=O)[O-])c1 returned OX1R antagonist -7.
`CCCP(=O)(CCC)CCP(=O)(c1ccccc1)c1ccccc1` gave OX1R antagonist -9.
`COc1cc(C2=NOC(C(=O)N3CCN(c4ccc(F)cc4)CC3)C2)cc(OC)c1OC` (configuration not stated) gave OX1R antagonist -18.
For Cc1ccc(CSC2=NCCN2C(=O)c2ccc([N+](=O)[O-])cc2)cc1 the results were OX1R antagonist -23.
CCN(C(=O)COc1cccnc1[N+](=O)[O-])C1CCS(=O)(=O)C1 (configuration not stated) was read as OX1R antagonist 1.
O=C(CNC(=O)c1ccc2c(c1)OCCO2)N/N=C/c1ccc(Cl)cc1 was read as OX1R antagonist -19.
`COCCn1c(SCC(=O)NCc2ccccc2)nnc1-c1ccco1` gave OX1R antagonist -5.
O=C(Nc1ccccc1N1CCCCC1)c1ncoc1-c1cccc(F)c1 was read as OX1R antagonist -6.
For COc1ccccc1NC(=S)N(CCCN1CCOCC1)Cc1cn(C)c2ccccc12 the results were OX1R antagonist -27.
Screening Cc1cc(C)n(-c2nc(SCCN(C)C)c3c4c(sc3n2)CCCC4)n1 returned OX1R antagonist -18.
CCOc1cc(C(=O)Nc2ccc(S(=O)(=O)N3CCOCC3)cc2)cc(OCC)c1OCC was read as OX1R antagonist -15.

The last 2 compounds of the section above are carried over, then new ones follow.
Screening Cc1cc(C)n(-c2nc(SCCN(C)C)c3c4c(sc3n2)CCCC4)n1 returned OX1R antagonist -18.
CCOc1cc(C(=O)Nc2ccc(S(=O)(=O)N3CCOCC3)cc2)cc(OCC)c1OCC was read as OX1R antagonist -15.
`COc1cc(CC(=O)OCC(=O)N2CC(=O)Nc3ccccc32)cc(OC)c1OC` gave OX1R antagonist -15.
For CCOc1ccc(CCNC(=O)c2cc(-c3ccccc3)c(N3CCOCC3)s2)cc1OCC the results were OX1R antagonist -9.
`O=C(O)C1CCCCC1C(=O)Nc1ccc(Cl)cc1Cl` (configuration not stated) gave OX1R antagonist -5.
`CCN(CC)S(=O)(=O)c1ccc(NC(=O)COC(=O)c2cc(S(=O)(=O)Nc3ccc(OC)cc3)ccc2O)cc1` gave OX1R antagonist -10.
For CCCCN(CCCC)S(=O)(=O)c1ccc(NC(=O)CN2CCOCC2)cc1 the results were OX1R antagonist -9.
For Cc1ccc(C)c(NC(=O)CSc2nnc([C@@H](N)Cc3ccccc3)o2)c1 the results were OX1R antagonist -39.
CS(=O)(=O)c1cnc(-c2ccccc2)nc1Sc1ccc(F)cc1 was read as OX1R antagonist -23.
For COc1ccc(NCC(=O)Nc2cc(S(=O)(=O)N3CCOCC3)ccc2N2CCOCC2)c(OC)c1 the results were OX1R antagonist -11.
COc1ccc(OCc2cc(C(=O)NC3CCOCC3)no2)c2ccccc12 was read as OX1R antagonist -15.
`CC(C)[C@H](NC(=O)Nc1ccc2c(c1)OCCO2)C(=O)O` gave OX1R antagonist -1.
Screening NCC(O)CN(c1ccccc1)c1ccccc1 (configuration not stated) returned OX1R antagonist -29.
O=C(NCC1CCCO1)C1CCC(N2C(=O)c3ccccc3C2=O)CC1 (configuration not stated) was read as OX1R antagonist -17.
For CCOC(=O)CN1C(=O)COc2ccc(Cl)cc21 the results were OX1R antagonist 1.
Screening O=C(c1ccccc1-c1nc(-c2ccccc2)no1)N1CCOCC1 returned OX1R antagonist -13.
`Cc1ccc(C)c(C(=O)Cn2c(NCCO)nc3ccccc32)c1` gave OX1R antagonist -32.
For CC(=O)c1cn(-c2ccc(Cl)cc2)c(=O)n(Cc2ccc(F)cc2)c1=O the results were OX1R antagonist -35.
Screening S=C(c1ccc(-c2ccccc2)o1)N1CCCCC1 returned OX1R antagonist -28.
CC(C)Oc1ccc(C2CC(=O)N(c3ccc(N(C)C)cc3)C2=O)cc1 (configuration not stated) was read as OX1R antagonist -17.
`CCc1cccc(Nc2cc(C)nc3nc(C)nn23)c1` gave OX1R antagonist -1.
CCCCCC(=O)NC(=S)Nc1ccc2oc(=O)ccc2c1 was read as OX1R antagonist -26.
For O=C(CCNC(=O)c1ccc([N+](=O)[O-])cc1)Nc1ccc(F)cc1F the results were OX1R antagonist -28.
Screening COCCNC(=O)C1CCN(S(=O)(=O)N2CCC3(CC2)OCCO3)CC1 returned OX1R antagonist -3.
For CCn1c2ccccc2c2nnc(SCC(=O)c3c(N)n(C)c(=O)n(C)c3=O)nc21 the results were OX1R antagonist -10.
Screening CCOP(=O)(OCC)C(Nc1cccc(C(F)(F)F)c1)c1ccc(F)cc1 (configuration not stated) returned OX1R antagonist -32.
For CNC(=O)C1CCC(=O)N1Cc1ccc(C)cc1 (configuration not stated) the results were OX1R antagonist -12.
`Cc1ccc(Cc2cnc(NC(=O)/C(C#N)=C/c3ccc(-c4ccccc4[N+](=O)[O-])o3)s2)cc1` gave OX1R antagonist -3.
For CC1=C(C(=O)OCc2ccccc2)C(c2ccc([N+](=O)[O-])cc2)NC(=O)N1 (configuration not stated) the results were OX1R antagonist -16.
CCOC(=O)c1c(NC(=S)NC(=O)c2ccc(Cn3cc(Cl)cn3)o2)sc2c1CCC(C)C2 (configuration not stated) was read as OX1R antagonist -20.
Screening CCC(=O)NNc1nc2c(F)cccc2s1 returned OX1R antagonist -4.
For O=C(CSc1ncnc2ccccc12)Nc1ccc2c(c1)OCO2 the results were OX1R antagonist -13.
Screening CCc1cc2cc(C)ccc2nc1SCC(=O)N1CC(=O)Nc2ccccc21 returned OX1R antagonist -35.
CC12CCC(=O)N1C(C(=O)N1CCN(S(=O)(=O)c3ccc(F)c(F)c3)CC1)CS2 (configuration not stated) was read as OX1R antagonist -11.
Screening CN(C)S(=O)(=O)c1ccc(NC(=O)COC(=O)C2CC3CCCC(C2)C3=O)cc1 (configuration not stated) returned OX1R antagonist 0.
For CN(C(=S)Nc1cccnc1)c1ccc(O)cc1 the results were OX1R antagonist 5.
CC(C)CNC(=O)COC(=O)c1ccc(Cl)c(S(=O)(=O)N2CCc3ccccc32)c1 was read as OX1R antagonist -22.
For CCC(Sc1ncccc1Nc1ccccn1)C(=O)O (configuration not stated) the results were OX1R antagonist -5.
O=C(Nc1cc(C(F)(F)F)ccc1N1CCOCC1)C1=NN(c2ccccc2)C(=O)CC1 was read as OX1R antagonist -33.
For Cc1ccccc1N1CCN(c2ncnc3c2cnn3Cc2ccc(Cl)cc2)CC1 the results were OX1R antagonist -24.
For COc1ccccc1C(=O)N1CCC(C(=O)c2ccc(F)cc2)CC1 the results were OX1R antagonist -6.
Screening Cc1ccc(OCc2cc(C(=O)NCCn3cccn3)no2)cc1C returned OX1R antagonist -21.
CCCCOc1ccc(C(=O)N/C(=C/C=C/c2ccccc2)C(=O)NCCO)cc1 was read as OX1R antagonist -9.
`CC(C)S(=O)(=O)c1nsc2nc(=O)c(/C=C3\C=Nc4ccccc43)c(N)n12` gave OX1R antagonist -13.
For COc1ccc(NC(=O)c2nc3ccccc3s2)cc1 the results were OX1R antagonist -14.
For COc1ccc(OCC(=O)N2c3ccccc3CCc3ccccc32)cc1 the results were OX1R antagonist -19.
Screening NC(=O)C(Cc1ccccc1)NC(=O)C12CC3CC(CC(C3)C1)C2 (configuration not stated) returned OX1R antagonist -20.
Screening COc1ccc(C(=O)Oc2cc(C)[nH]c(=O)c2[N+](=O)[O-])cc1 returned OX1R antagonist -10.
O=C(NCCN1CCCC(O)C1)c1cc(COc2c(F)cccc2F)on1 (configuration not stated) was read as OX1R antagonist -7.
Screening Cc1ccc(C)c(NC(=O)CSc2ccc(-c3ccco3)nn2)c1 returned OX1R antagonist -25.
`CCOc1ccc(-c2nnc3ccc(SCC(=O)Nc4nc5ccc(C)cc5s4)nn23)cc1` gave OX1R antagonist -1.
`Cn1cc(C(=O)N/N=C/c2ccc(Br)c([N+](=O)[O-])c2)c2ccccc21` gave OX1R antagonist -2.
`CCOc1ccc(C(=O)Nc2nc3ccccc3[nH]2)cc1OCC` gave OX1R antagonist -13.
`Cn1nnnc1SCc1nc2scc(-c3ccccc3)c2c(=O)[nH]1` gave OX1R antagonist -7.
Screening C[C@H](NC(=O)c1nc[nH]c1C(=O)NCC(=O)OC(C)(C)C)c1ccccc1 returned OX1R antagonist -12.
`O=C(COC(=O)CNC(=O)c1ccc(Br)cc1)NCCC1=CCCCC1` gave OX1R antagonist -27.
For CCOc1ccc(CCNC(=O)Cn2c(=O)c3cccn3c3cccnc32)cc1 the results were OX1R antagonist -22.
`Cn1c(=O)c2c(nc(CN3CCN(CCO)CC3)n2CCc2ccccc2)n(C)c1=O` gave OX1R antagonist -8.
`C[C@]12C(=O)N(c3ccc(C(F)(F)F)cc3)C(=O)N1[C@@H]1c3ccccc3OC[C@@H]1[C@H]2c1ccccc1` gave OX1R antagonist -27.
Screening Cc1cc(=O)cc(C)n1-c1ccc(Cl)c(Cl)c1 returned OX1R antagonist 0.
For CSc1ccccc1NC(=O)CN(c1cc(C)cc(C)c1)S(C)(=O)=O the results were OX1R antagonist -6.
`COc1ccccc1Cn1c(C)nnc1-c1cnn(C)c1N` gave OX1R antagonist -13.
CSc1ccccc1-c1nnc(-c2ccccc2)o1 was read as OX1R antagonist -16.
`Cc1ccc(CNC(=O)C2CC(=O)N(C3CCCCCCC3)C2)cc1` (configuration not stated) gave OX1R antagonist -20.
For Cc1ccc(Cn2c(CN3CCOCC3)nc3c2c(=O)[nH]c(=O)n3C)cc1 the results were OX1R antagonist -19.
COc1ccc(OC)c(S(=O)(=O)Nc2ccc(CC(=O)O)cc2)c1 was read as OX1R antagonist -7.
`Cc1nc(Br)c(Br)c(C)c1Br` gave OX1R antagonist -16.
S=C(NCc1ccncc1)NC1CCCCC1 was read as OX1R antagonist -19.
Cc1c(C(C)O)nnn1-c1nonc1N (configuration not stated) was read as OX1R antagonist 0.
Cc1noc(C(=O)NCC2CCCO2)c1Cl (configuration not stated) was read as OX1R antagonist -6.
Screening CC(=O)Nc1nonc1NC(=O)c1ccc(C(C)(C)C)cc1 returned OX1R antagonist -16.

Bioassay records: PubChem, The Scripps Research Institute Molecular Screening Center

The list is partial; most or all hits stand in other tables.
